Assay outcomes as filed in PubChem BioAssay.
Bfl-1 A1 inh: inhibitors of the anti-apoptotic protein A1, read as caspase activation; MEF A1-2A-BIM cells, Caspase-Glo 3/7 luminescence, 3 h; percent of clofoctol response, vehicle zero; caspase activation, % (test concentration not listed); actives 0.066% (n = 330,000); AID 2462;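 active means over half of replicate activation scores above 10%, or exactly half above 10 with the replicate mean above 10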;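 further: wells of about 30 µL received 50 nL stock; many hits fall short of the cut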
rRNA inh HTS: selective bacterial rRNA inhibition in E. coli; E. coli WT GFP vs humanized-ribosome RFP mutants, fluorescence, 24 h; stronger effect = lower value; DMSO median 0, no signal -100; GFP signal change (wild-type ribosome), % (test concentration not listed); actives 1.6% (n = 350,000); AID 720706;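 active means significant combined selectivity score with lowered wild-type GFP, culture density cut under 30%, mutant RFP and density less affected; inactive means any of these conditions unmet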; further: one replicate is shown; some compounds called inactive have numbers as strong as hits
UCH37 inh: inhibitors of human deubiquitinating enzyme UCH37. Q9Y5K5. purified proteasome/UCH37, Ub-AMC cleavage fluorescence. inhibition, % (test concentration not listed). actives 0.33% (n = 330,000). AID 588478;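 active means mean of two replicates above 20%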;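 further: 0% = compound-free wells with enzyme and 100% = wells lacking proteasome; stock transfer was 100 nL into about 20 µL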
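Test system – human UCH37 enzyme supplied as purified proteasome complex · Incubation – 30 min preincubation with enzyme, 25 min cleavage at room temperature · Detection – AMC fluorescence from Ub-AMC cleavage, excitation 355 nm, emission 460 nm · Benchmarks – no-proteasome wells (full inhibition) and compound-free wells (no inhibition)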
Beta apoptosis: beta cell apoptosis inhibition. actives 0.8% (n = 300,000). INS-1E cytokine-induced death, ATP luminescence, 48 h; percent of positive-control rescue, neutral wells zero. protection from apoptosis, % (concentration not given with the values);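 active means all replicates at 75% or more, or half of them and the mean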;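 further: 0% = cytokine-treated negative control wells and 100% = positive control rescue; higher means more ATP so stronger rescue from cytokine killing; wells of about 40 µL received 100 nL stock; the first replicate is given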
Ecoli growth: inhibitors of Escherichia coli growth. OD600, 23 h; stronger effect = lower value. OD600 absorbance (concentration not given with the values). actives 0.21% (n = 330,000). AID 1053175;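 active means OD600 absorbance below the run mean of sample wells minus 3.6 SD, in any replicate, cut at about 0.56 in these data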;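 further: stock transfer was 300 nL into about 60 µL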
T cruzi repl: T. cruzi replication inhibition | actives 1.4% (n = 300,000) | T. cruzi beta-gal in NIH3T3, luminescence, 90 h | inhibition, % (test concentration not listed);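 active means mean inhibition across valid replicates above about 55%, limit read from the data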;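 further: signal also drops with host cell toxicity which is not excluded here; 0% = plate median of DMSO wells and 100% = zero luminescence signal; higher percent means less beta-gal luminescence so fewer parasites; stock transfer was 50 nL into about 50 µL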
MLL AF4-AF9 inh: MLL-AF4/AF9 protein interaction inhibition; P42568; AlphaScreen, biotin-AF4 peptide binding to FLAG-AF9; inhibition, % at 10 µM; actives 0.47% (n = 350,000); AID 651704;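 active means every replicate reaching a set inhibition limit, whatever the replicate mean, cut at about 25% in these data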;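 further: 0% = plate neutral control median and 100% = total signal loss; the record names both 10 and 1 µM as test concentration; the first replicate is given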
Target sequence (P42568 whole entry, looked up): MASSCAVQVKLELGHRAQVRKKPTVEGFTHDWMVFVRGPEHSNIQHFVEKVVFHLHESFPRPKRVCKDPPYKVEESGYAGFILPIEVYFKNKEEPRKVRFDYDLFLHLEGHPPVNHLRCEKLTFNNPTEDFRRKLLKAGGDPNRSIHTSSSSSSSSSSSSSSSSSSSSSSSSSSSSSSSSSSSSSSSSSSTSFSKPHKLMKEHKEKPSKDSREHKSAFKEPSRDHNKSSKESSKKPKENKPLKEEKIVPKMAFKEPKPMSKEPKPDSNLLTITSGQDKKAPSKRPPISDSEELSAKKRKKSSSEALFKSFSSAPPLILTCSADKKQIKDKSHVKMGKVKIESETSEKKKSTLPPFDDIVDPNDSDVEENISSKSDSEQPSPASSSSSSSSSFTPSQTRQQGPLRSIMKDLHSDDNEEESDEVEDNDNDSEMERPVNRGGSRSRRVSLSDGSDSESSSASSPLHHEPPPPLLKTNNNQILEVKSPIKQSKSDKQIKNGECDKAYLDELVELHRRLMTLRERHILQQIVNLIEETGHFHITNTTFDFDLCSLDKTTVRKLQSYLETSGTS
FGF22 binding: FGF22 (human) thermal shift binding | Q9HCT0 | recombinant FGF22 thermal shift, SYPRO orange fluorescence; percent of sucrose octasulfate shift, DMSO zero | calls only at 9.99 µM | actives 1.5% (n = 340,000);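 active means melting point raised past a set limit in the mean and every replicate; three in four hits are not shown here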
rRNA inh HTS OD600: further read-out of rRNA inh HTS, marked with its call; OD600 change, %; measured here: OD600 growth;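 optical density of the mix in the first replicate; 0 = DMSO median and -100 = no signal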
rRNA inh HTS RFP: also measured in rRNA inh HTS; calls as there; RFP signal change, %; measured here: RFP humanized mutant strains;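 first replicate; 0 = DMSO median and -100 = no signal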
* hit, by the source's call; i = inactive; / = not tested or not shown.

cpd	canonical_smiles	Bfl-1 A1 inh	rRNA inh HTS	rRNA inh HTS OD600	rRNA inh HTS RFP	UCH37 inh	Beta apoptosis	Ecoli growth	T cruzi repl	MLL AF4-AF9 inh	FGF22 binding
1	CC(Sc1nnc(-c2ccccc2)c(-c2ccccc2)n1)C(=O)N1CCc2ccccc21 (centres undefined)	-0.1	/	/	/	5.2	56	0.7	14	/	/
2	COc1cccc(-c2cc(C(=O)N/N=C/c3ccco3)c3ccccc3n2)c1	0.3	/	/	/	/	/	/	-2	4.2	i
3	Cc1cc(OCc2ccc(F)cc2)nc(-c2ccccc2O)n1	2.1	/	/	/	-4.1	5	0.72	21	/	/
4	CC(CC(=O)NC1CCSC1=O)c1ccccc1 (centres undefined)	-0.3	/	/	/	4.3	-1	0.71	-16	/	/
5	NC(=O)c1ccc[n+](Cc2cccc3ccccc23)c1	-0.8	/	/	/	3.1	-1	0.65	-7	/	/
6	CC(=O)Nc1ccc(Nc2cc(N(C)C)c3nonc3c2[N+](=O)[O-])cc1	-0.7	7	8	1.5	6.3	-4	0.69	-10	-1.8	i
7	O=C(CN1C(=O)/C(=C/c2ccco2)SC1=S)Nc1ccc(C(=O)O)c(O)c1	-0.8	-13	10	21	10	-1	0.69	-11	6.2	i
8	CCOc1cc(C(=O)Nc2ccc(S(=O)(=O)Nc3nnc(CC)s3)cc2)cc(OCC)c1OCC	0.2	-15	-8	5.2	2.5	-5	0.66	-3	-2.3	i

The listing continues.
Each structure is followed by: Bfl-1 A1 inh | rRNA inh HTS | rRNA inh HTS OD600 | rRNA inh HTS RFP | UCH37 inh | Beta apoptosis | Ecoli growth | T cruzi repl | MLL AF4-AF9 inh | FGF22 binding
(9) COC(=O)c1cc(NC(=O)CSC2=NCCS2)cc(C(=O)OC)c1
→ 0.2 | 5 | 12 | 1.2 | 1.5 | -4 | 0.68 | -14 | 4.2 | i
(10) CCn1c2ccccc2c2cc(NC(=O)CC(C)=O)ccc21
→ 0.7 | / | / | / | 0.7 | 1 | 0.66 | 13 | / | /
(11) CCOc1cc(C2C3=C(CCCC3=O)N(CCC(=O)O)C3=C2C(=O)CCC3)ccc1OS(=O)(=O)c1ccc(C)cc1
→ -0.3 | / | / | / | i | -2 | 0.68 | -4 | / | /
(12) COc1ccc(NC(=O)CC(Cc2ccccc2)C(=O)O)cc1 (centres undefined)
→ 0.6 | / | / | / | 3.6 | -8 | 0.69 | -16 | / | /
(13) CNC(=O)N(C1=NCC(C)S1)c1ccc(F)cc1F (centres undefined)
→ 1.0 | / | / | / | 4.6 | -5 | 0.73 | 14 | / | /
(14) Cc1ccc(C2CC(C(F)F)n3ncc(C(=O)Nc4cnn(Cc5ccccc5C)c4)c3N2)cc1 (centres undefined)
→ 0.2 | / | / | / | 2.5 | -4 | 0.72 | 14 | / | /

These rows are one share of the data, so the mix of outcomes need not match the whole.
